Source: PubChem (ICCB-Longwood Screening Facility, Harvard Medical School)
GIV-Gai inh: GIV-Galpha-i interaction inhibition; P08753; Galpha-i3/FITC-GIV peptide fluorescence polarization, 90 min; hits give low values; scaled: aluminum fluoride 0%, vehicle 100%; percent of control (FP), % (concentration not given with the values); hit rate 0.42% among 210,000; AID 1224905;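 active = replicate mean at 85% of control or lower, very high polarization wells dropped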;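 also: wells of about 15 µL received 100 nL stock; the first replicate is given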
Target sequence (P08753 whole entry, looked up): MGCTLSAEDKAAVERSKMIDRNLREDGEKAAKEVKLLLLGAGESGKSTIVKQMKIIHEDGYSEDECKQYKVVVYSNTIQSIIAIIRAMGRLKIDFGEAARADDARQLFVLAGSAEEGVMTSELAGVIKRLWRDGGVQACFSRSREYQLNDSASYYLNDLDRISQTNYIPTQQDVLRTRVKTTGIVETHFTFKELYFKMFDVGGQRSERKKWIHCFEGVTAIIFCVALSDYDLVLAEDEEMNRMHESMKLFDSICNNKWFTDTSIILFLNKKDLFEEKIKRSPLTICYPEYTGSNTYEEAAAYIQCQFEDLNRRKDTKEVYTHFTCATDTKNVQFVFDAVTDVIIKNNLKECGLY
* hit, by the source's call. This is a subset. The share of hits here may be higher or lower than overall.

The first 4 records, ahead of the listing:
Structure | GIV-Gai inh
COCCNC(=O)c1sc2ncnc(N3CCN(c4ccccc4OC)CC3)c2c1C | 98
CCCN1C(=O)NC2(O)C(=O)c3ccccc3C12O (configuration not stated) | 77*
CCOP(=O)(OCC)C(Nc1ccccc1)c1cc(C(C)(C)C)c(O)c(C(C)(C)C)c1 (configuration not stated) | 115
O=C(Nc1ccccc1)c1cc2c3c(c1)C1C=CCC1CN3CC1CC=CC21 (configuration not stated) | 109

All compounds of this part, from the first entry:
Structure | GIV-Gai inh
COCCNC(=O)c1sc2ncnc(N3CCN(c4ccccc4OC)CC3)c2c1C | 98
CCCN1C(=O)NC2(O)C(=O)c3ccccc3C12O (configuration not stated) | 77*
CCOP(=O)(OCC)C(Nc1ccccc1)c1cc(C(C)(C)C)c(O)c(C(C)(C)C)c1 (configuration not stated) | 115
O=C(Nc1ccccc1)c1cc2c3c(c1)C1C=CCC1CN3CC1CC=CC21 (configuration not stated) | 109
O=c1c2cn[nH]c2[nH]c(=S)n1-c1cccc2ccccc12 | 114
CC(=O)NCCN1C(=O)N(C)C2C1N(C)C(=O)N2C (configuration not stated) | 113
Cc1cc(-c2c(C)sc(C)c2S(=O)(=O)NC2CCC(C)CC2)n[nH]1 (configuration not stated) | 97
COc1ccc(NC(=O)c2c(NC(=O)c3ccccc3)sc3c2CCCCC3)cc1 | 102
Cc1ccc([N+](=O)[O-])cc1NC(=O)C(Cc1c[nH]c2ccccc12)NC(=O)OCc1ccccc1 (configuration not stated) | 112
COc1ccc2nc(NC(=O)c3sc4ncn(CC(=O)Nc5ccccc5OC)c(=O)c4c3C)sc2c1 | 112
CC1CC(C)CN(S(=O)(=O)c2ccc(F)c(C(=O)N3CC(=O)N(CCc4ccccc4)C(=O)C3)c2)C1 (configuration not stated) | 110
CC(C)NC(=O)N1CCN(Cc2nc3cccnc3n2-c2ccc(F)cc2)CC1 | 101
Cc1ccc(-n2c(N)c(C(=O)Nc3ccccc3C)sc2=S)cc1C | 111
C=CCn1c(SCC(=O)c2ccc(Br)cc2)nc2cc(C(=O)NCc3ccco3)ccc2c1=O | 111
Cc1ccccc1CSC(SCc1ccccc1C)=C(C#N)C(=O)Nc1ccc(F)cc1 | 106

(cont.)
Structure | GIV-Gai inh
COc1ccc(NC(=O)N2CCOc3ccc(COCc4ccc(F)cc4)cc3C2)c(OC)c1 | 100
Cc1ccc(C(=O)Nc2cccc(OCc3cc(=O)n4ccccc4n3)c2)cc1 | 99
Oc1oc(-c2ccc(Br)cc2)nc1C=Nc1cccc(F)c1 | 102
N#CCSc1nc2ccccc2nc1Cc1cccc([N+](=O)[O-])c1 | 104
Cc1cc(N2CCCC2)nc(N2CCN(C(=O)C3CCCC3)CC2)n1 | 103
O=C(Nc1cccc(Cl)c1)c1ccc(SCCN2CCCCC2)nc1 | 103
COc1ccc2oc(=Nc3ccc(C(=O)O)cc3)c(C(=O)Nc3ccc(F)c(Cl)c3)cc2c1 | 113
COc1ccc(NC(=O)c2ccccc2NC(=O)c2cccc(S(=O)(=O)N3CCCCCC3)c2)cc1 | 103
COc1ccc(N2CCN(S(=O)(=O)c3ccc(F)c(C(=O)Nc4cc(C)cc(C)c4)c3)CC2)cc1 | 106
COc1ccc(-c2cc(C(F)(F)F)n3ncc(C(=O)N4CCN(c5ccccc5OC)CC4)c3n2)cc1OC | 105
O=C(O)c1c[nH]c2ccc(S(=O)(=O)N3CCN(c4cccc(Cl)c4)CC3)cc2c1=O | 110
Cc1ccc(-c2noc(-c3ccc(=O)n(CC(=O)Nc4ccc(Br)cc4)c3)n2)cc1 | 106
Cc1ccc(F)cc1Nc1ncnc2c1cnn2C | 98
Cc1ccc2nc(-c3ccccc3)c(-c3ccccc3)nc2c1 | 105
COc1cc(OC)cc(C(=O)Nc2c(C)nc3sccn3c2=O)c1 | 110

Additional entries follow.
Structure | GIV-Gai inh
CCOc1cc(-c2nc3sc4c(c3c(=O)[nH]2)CCCC4)ccc1OCCOc1ccccc1C | 107
CCCCC(=O)NC(c1ccccc1OC)c1ccc2cccnc2c1O (configuration not stated) | 101
CCCC(=O)Nc1c(C)nc2sccn2c1=O | 101
CCc1onc(C)c1C1CCCN1S(=O)(=O)c1c(C)noc1C (configuration not stated) | 106
C=CCOC(=O)C1=C(C)OC(N)=C(C#N)C1c1ccccc1[N+](=O)[O-] (configuration not stated) | 107
COc1ccc(-c2cc(C(=O)N3CCOCC3)c3cc(C)ccc3n2)cc1 | 105
O=C(NC1CC1)c1ccc(-c2nc(-c3ccc(F)cc3)no2)cc1 | 102
O=c1/c(=C/c2cccc(Cl)c2)sc2nnc(-c3ccccc3)n12 | 118
CCN(c1ccccc1)S(=O)(=O)c1cccc2nonc12 | 103
Cc1ccccc1Oc1ccc2noc3c2c1C(=O)c1ccccc1-3 | 103
CCOc1ccc(-c2csc(Cc3nc(-c4cccc(C)c4)no3)n2)cc1 | 114
Cc1nn(-c2nc3ccccc3[nH]2)c2c1C(c1c(F)cccc1Cl)CC(=O)N2 (configuration not stated) | 105
CC12c3ccccc3C(c3ccccc31)C1C(=O)N(Cc3ccccc3)C(=O)C12 (configuration not stated) | 119
COc1ccc(N2CCN(c3ncnc4c3cnn4-c3ccc(Cl)cc3)CC2)cc1 | 110
COc1ccc(/C(O)=C2\C(=N)N(c3ccccc3Cl)C3=C(C(=O)CCC3)C2c2cc(OC)c(OC)c(OC)c2)cc1 (configuration not stated) | 119

(cont.)
Structure | GIV-Gai inh
CCN(CC)c1nc(C)nc2sc(C(=O)NC3CCCCCC3)c(C)c12 | 105
Cc1c(Cl)cccc1N1C(=O)C2C3c4ccccc4C(c4ccccc43)C2C1=O (configuration not stated) | 117
CCOc1ccc(N2C(=O)C3C4c5ccccc5C(C(C)=O)(c5ccccc54)C3C2=O)cc1 (configuration not stated) | 106
Cc1nn(CC(=O)NC(C)(C)C)c(C)c1S(=O)(=O)N1CCCC(C(=O)N2CCc3ccccc3C2)C1 (configuration not stated) | 106
Cc1ccc(-c2cc(N3CCN(C(=O)NC(C)C)CC3)ncn2)cc1 | 99
O=C(Nc1nccs1)C1CCN(c2nc(-c3ccc(Cl)cc3)no2)CC1 | 108
COc1ccc(OC)c(NC(=O)c2ccc3c(=O)n(-c4ccc(OC)c(OC)c4)c(=S)[nH]c3c2)c1 | 106
CCCc1nn2c(=O)cc(CN(CCC)Cc3ccc(C)cc3)nc2s1 | 105
O=S(=O)(Nc1ccccc1-c1ccc2ccccc2n1)c1ccccc1 | 102
COc1cccc(Oc2ccnc(-c3cccc(C(=O)NCC4CCCO4)c3)n2)c1 (configuration not stated) | 106
C=COC(=O)CSc1nc(-c2ccccc2)cc(-c2ccc(OC)cc2)c1C#N | 102
Cc1ccccc1Cc1c(C)nc2c(C(=O)NCc3cccnc3)cnn2c1C | 107
O=C1c2ccccc2C(=O)N1CC1c2ccccc2CCN1S(=O)(=O)c1ccc(F)cc1F (configuration not stated) | 104
O=C(CC1(O)C(=O)N(Cc2ccccc2Cl)c2ccccc21)c1ccco1 (configuration not stated) | 108
NNC(=O)CN1C(=O)C2(OCCO2)c2ccccc21 | 112

Looked up one by one from the entries so far:
Structure | GIV-Gai inh
Cc1ccccc1Cc1c(C)nc2c(C(=O)NCc3cccnc3)cnn2c1C | 107
C=COC(=O)CSc1nc(-c2ccccc2)cc(-c2ccc(OC)cc2)c1C#N | 102
O=C(CC1(O)C(=O)N(Cc2ccccc2Cl)c2ccccc21)c1ccco1 (configuration not stated) | 108
Cc1c(Cl)cccc1N1C(=O)C2C3c4ccccc4C(c4ccccc43)C2C1=O (configuration not stated) | 117
Cc1nn(CC(=O)NC(C)(C)C)c(C)c1S(=O)(=O)N1CCCC(C(=O)N2CCc3ccccc3C2)C1 (configuration not stated) | 106
COc1ccc(OC)c(NC(=O)c2ccc3c(=O)n(-c4ccc(OC)c(OC)c4)c(=S)[nH]c3c2)c1 | 106

The listing continues:
Structure | GIV-Gai inh
O=S(=O)(Nc1cc2c3c(oc2c2ccccc12)CCCC3)c1ccc2ccccc2c1 | 108
CC(=O)Nc1ccc(NC(=O)Cn2nc(C(=O)N3CCCCC3)c3ccccc32)cc1 | 113
C=CCC1(O)C(=O)Nc2ccccc21 (configuration not stated) | 103
O=C(Cn1nc(C(=O)Nc2ccccc2)ccc1=O)Nc1ccccc1F | 101
Cc1ccc(C2c3cccn3CCN2S(=O)(=O)c2ccc3c(c2)OCCO3)cc1 (configuration not stated) | 108
O=C(NCCN1CCCC1)c1nc(-c2ccc(S(=O)(=O)N3CCCCC3)cc2)no1 | 106
O=C(COc1ccc([N+](=O)[O-])cc1)Nc1ncn[nH]1 | 111
CC(C)(C)c1nnc(-c2ccc3c(c2)OCO3)o1 | 98
CC(C)(C)c1ccc(S(=O)(=O)Nc2cc3c4c(oc3c3ccccc23)CCC(C(C)(C)C)C4)cc1 (configuration not stated) | 105
CCOC(=O)N1CCC(NC(=O)c2cc3nc(-c4ccc(Cl)cc4)cc(C(F)(F)F)n3n2)CC1 | 115
Cc1ccc(-c2cn3c4c(=O)n(C)c(=O)n(C)c4nc3n2-c2ccccc2)cc1C | 111
O=C(CSc1nc2[nH]ncc2c(=O)n1-c1ccccc1Cl)N1CCCC1 | 108
O=C(OCCOCCN=C1NS(=O)(=O)c2ccccc21)c1ccc(Cl)cc1Cl | 102
COc1cc(-n2cnc3cc(C(=O)NCCc4ccccc4)ccc32)cc(OC)c1OC | 107
CC(C)Cc1csc(-c2csc(S(=O)(=O)NCc3ccc(F)cc3F)c2)n1 | 103

(further entries)
Structure | GIV-Gai inh
C=CCc1cccc(/C=N/c2oc(-c3ccccc3)c(-c3ccccc3)c2C#N)c1OC | 109
Cc1cc(S(=O)(=O)Nc2cc(C(=O)NCc3ccccc3)ccc2N2CC3CC(C2)c2cccc(=O)n2C3)ccc1F (configuration not stated) | 105
NC(=O)CSc1nnc2n(CCC(=O)NC3CCCCC3)c(=O)c3ccccc3n12 | 99
CC(C)NC(=O)N1CCN(c2cc(-c3ccc(F)cc3)ncn2)CC1 | 103
COc1ccc(C(=O)N2CCc3ccc(CNS(C)(=O)=O)cc32)cc1 | 111
Cc1nc(CCNC(=O)[C@H]2CCCN2S(=O)(=O)c2ccc(Br)cc2)cs1 | 103
Cn1c(=O)c(C(=O)N2CCN(c3ccccn3)CC2)nc2ccccc21 | 99
Cc1ccc(/C=C2\SC(=S)N(CN3CCCCCC3)C2=O)cc1 | 104
Cc1ccccc1NC(=O)C(Cc1c[nH]c2ccccc12)NC(=O)Oc1ccccc1 (configuration not stated) | 104
CCOC(=O)c1ccc(NC(=O)C2CCCN(C(=O)c3cc(C)cc(C)c3)C2)cc1 (configuration not stated) | 104
C=CCn1c(SCC(=O)Nc2ccccc2O)nnc1-c1cc2ccccc2o1 | 102
Cc1cccc(S(=O)(=O)N2CCCN(c3nc4cccnc4s3)CC2)c1 | 104
Cc1ccc(N2C(=O)C(N3C(=O)c4cccc([N+](=O)[O-])c4C3=O)C2c2cccs2)cc1F (configuration not stated) | 115
Cc1[nH]c(C)c(S(=O)(=O)N2CCCCC2)c1-c1nc(C2CC2)no1 | 112
Cc1ccc(C2C=C(c3ccc(Br)cc3)Nc3nc4ccccc4n32)cc1 (configuration not stated) | 104

Carrying on.
Structure | GIV-Gai inh
Cc1ccc(-c2nc(-c3ccc(NC(=O)c4ccco4)cc3)no2)cc1[N+](=O)[O-] | 103
COc1ccc(-n2ccc(=O)c(-c3nc(-c4ccc(Br)cc4)no3)n2)cc1 | 103
COCCNc1nc(SCc2cc(C(C)=O)ccc2OC)nc2ccccc12 | 105
NS(=O)(=O)c1ccc(CCNC(=O)CSc2nc3ccc(Br)cc3c3nc4ccccc4n23)cc1 | 108
CC(=O)C12c3ccccc3C(c3ccccc31)C1C(=O)N(c3ccc([N+](=O)[O-])cc3Br)C(=O)C12 (configuration not stated) | 102
Cc1nn(-c2ccc(F)cc2)c2c1c(=O)c(C(=O)N1CCC(N3CCCCC3)CC1)cn2C | 100
COc1ccc(CNc2nc(SCC(=O)Nc3cccc(OC)c3)nc3ccccc23)cc1 | 107
O=C1c2ccccc2C(=O)N1CC1c2ccccc2CCN1S(=O)(=O)c1ccc([N+](=O)[O-])cc1 (configuration not stated) | 107
Cc1c(CCN2C(=O)OC3(CC(C)(C)NC(C)(C)C3)C2(C)O)c2ccccc2n1C (configuration not stated) | 106
CCN(CC)C(=O)c1cc(NS(=O)(=O)c2ccc(Br)cc2)cnc1N1CCNCC1 | 101
Cc1nn(-c2ccc3nncn3n2)c(C)c1CCC(=O)Nc1ccc(F)c(F)c1 | 101
COc1ccc(OC)c(NS(=O)(=O)c2cc(-c3nc(C)cs3)n(CC(=O)N3CCCC3)c2)c1 | 107
Cc1cc(Br)ccc1N(NC(=O)C(O)(c1ccc(Cl)cc1)c1ccc(Cl)cc1)C(=O)c1ccccc1 | 102
Cc1sc2ncnc(Oc3ccc(NC(=O)c4ccccc4)cc3)c2c1C | 99
CCCCc1cnc2c(c1SC(C)C)c(=O)n(C)c(=O)n2C | 101

Continuation:
Structure | GIV-Gai inh
COc1ccc(NC(=O)c2c(NC(=O)c3cccnc3)sc3c2CCCCC3)cc1 | 108
Cc1csc(-c2cc(S(=O)(=O)NCCN(C)C)cn2CC(=O)N2CCCCC2)n1 | 102
COCCCNC(=O)CSc1nc2ccc(Br)cc2c2nc3ccccc3n12 | 111
CCCc1cc(C2CCCN2Cc2cccc(C)c2)no1 (configuration not stated) | 105
Cc1ccc(-n2cc(-c3ccccc3)c3c(NCCc4ccc(S(N)(=O)=O)cc4)ncnc32)cc1 | 111
COC(=O)CNC(=O)c1sc2ncccc2c1-n1cccc1 | 108
COc1ccc2nc(SCC(=O)Nc3ccc(C(C)C)cc3)[nH]c2c1 | 107
COCCNC(=O)N1CC(c2nc(C)no2)C2(CCOCC2)C1 (configuration not stated) | 103
Cc1ccc(S(=O)(=O)Nc2cc3c4c(oc3c3ccccc23)CCCC4=O)cc1 | 102
